StopGo reporter: lowers the luciferase signal of an FMDV 2A StopGo reporter; human cells with a luciferase reporter of 2A StopGo recoding; control for the full effect not named in the record; Potency, µM (highest dose often 57.9 µM), inactives show at the top dose signal change, negative = less light; hit rate 1.2% among 410,000; AID 1159524; active = well fitted falling curve with a large enough effect; inconclusive = small, poorly fitted or top-dose-only effect; inactive = no such curve, though single readings can be large or run the other way; tested in HEK293T cells; also: % is scaled to controls: 0 for no effect and ±100 for the full control effect; nearly all actives have a fitted effect of over 45% in size; luciferase light after 4 h
SARS PLpro yeast: blocks SARS-CoV papain-like protease in a yeast assay; S. cerevisiae expressing SARS-CoV PLpro, growth rescue; control for the full effect not named in the record; hit rate 0.19% among 330,000; Potency, µM (titrated, usually from 32.9 µM), for inactives: at the top dose activity, positive = growth rescue; also: 0% is about no effect; nearly all actives have a fitted effect of over 55% in size; growth read by luminescence after 48 h
NS1 function inh: blocks influenza NS1 protein function | hit rate 0.4% among 270,000 | S. cerevisiae slowed by influenza A NS1, growth recovery by OD600 | Potency, µM (series often up to 46.1 µM), for inactives: at the top dose activity, positive = more growth; also: actives are rising curves; nearly all actives have a fitted effect of over 50% in size
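OD600 was taken as the measure of yeast growth restored by compound in an NS1-expressing S. cerevisiae strain. Cells had been washed out of glucose medium and diluted 1:100 into galactose -URA medium, pH 6.0.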
RE007 growth inh: less growth of the S. pombe RE007 Vpr strain | S. pombe RE007 Vpr strain, BacTiter-Glo ATP luminescence, 24 h; control for the full effect not named in the record | Potency, µM (titrated, usually from 92.2 µM), inactives show at the top dose activity change, negative = less growth | hit rate 0.21% among 360,000; active = well fitted falling curve with a large enough effect; inconclusive = small, poorly fitted or top-dose-only effect; inactive = no such curve, though single readings can be large or run the other way;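 also: % is scaled to controls: 0 for no effect and ±100 for the full control effect; nearly all actives have a fitted effect of over 50% in size; the assay follows cell death caused by Vpr and the record does not say whether a fall means rescue or toxicity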
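Fission yeast strain RE007, carrying one chromosomally integrated HIV-1 vpr copy, was seeded at OD 0.01 in PMG+AL medium with 23 nL pinned compound. After 24 h at 30 °C and 99% humidity, viability was read by BacTiter-Glo luminescence.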
Cruzain inh Det: blocks cruzain activity in presence of Triton detergent; P25779; purified cruzain, Z-FR-AMC fluorescence, 0.01% Triton; Potency, µM, for the others: max response, negative = inhibition, most hits filed as inhibitors; hit rate 0.43% among 200,000; active = well fitted curve in the direction sought with a large enough effect; inconclusive = small, poorly fitted or top-dose-only effect, or another doubt; inactive = no such curve, though single readings can be large; an effect the other way counts as inactive or inconclusive;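 also: plate controls were neutral wells for no effect and buffer without enzyme for full effect; nearly all actives have a fitted effect of over 40% in size; top concentration of the series not given in the record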
Target sequence (P25779 123-467 limits assumed): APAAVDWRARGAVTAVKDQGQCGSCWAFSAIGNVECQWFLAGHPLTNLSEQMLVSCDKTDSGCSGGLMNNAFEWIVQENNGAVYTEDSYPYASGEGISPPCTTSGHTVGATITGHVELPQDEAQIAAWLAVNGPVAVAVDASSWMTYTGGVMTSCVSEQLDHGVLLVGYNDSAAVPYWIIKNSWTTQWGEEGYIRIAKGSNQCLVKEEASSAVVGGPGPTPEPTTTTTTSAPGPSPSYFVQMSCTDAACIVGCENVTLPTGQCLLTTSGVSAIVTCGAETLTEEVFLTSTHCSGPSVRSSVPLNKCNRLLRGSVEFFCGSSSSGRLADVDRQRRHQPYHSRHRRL
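In this qHTS format, compounds are incubated with 1.5 nM cruzain for 15 min at room temperature before 2 uM Z-FR-AMC is added. Release of AMC is followed at 360/450 nm, and progress is taken as the 60 s fluorescence difference.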
Cruzain noTriton: blocks cruzain activity in detergent-free assay | P25779 | purified cruzain, Z-FR-AMC fluorescence, no detergent | hit rate 2.3% among 200,000 | Potency, µM, without a hit: max response, negative = inhibition, usual class: inhibitors | AID 1476; active = well fitted curve in the direction sought with a large enough effect; inconclusive = small, poorly fitted or top-dose-only effect, or another doubt; inactive = no such curve, though single readings can be large; an effect the other way counts as inactive or inconclusive;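 also: plate controls were enzyme without inhibitor for no effect and buffer without enzyme for full effect; nearly all actives have a fitted effect of over 40% in size; top concentration of the series not given in the record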
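Detergent-free condition (0.00005% Triton X-100) in acetate buffer pH 5.5 with DTT. 1.5 nM enzyme and compound were pre-mixed 15 min, then 2 uM Z-FR-AMC substrate added; reaction progress from fluorescence change between first and third reads (60 s).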
Marburg entry inh: blocks Marburg virus binding to or entry into cells | Potency, µM (titrated, usually from 37.8 µM), for inactives: at the highest dose activity change, negative = inhibition, actives largely listed as inhibitors | hit rate 1.8% among 300,000 | Marburg virus pseudotyped entry inhibition, cell reporter; control for the full effect not named in the record; about a third of the inactives were read at about 46 µM; active = well fitted inhibition curve with a large enough effect; inconclusive = small, poorly fitted or top-dose-only effect, or effect the other way; inactive = flat fitted curve, though single readings scatter; tested in HEK293 cells; about a fifth of its hits are not listed in these tables; also: % is scaled to controls: 0 for no effect and ±100 for the full control effect; luciferase read-out
LASV entry inh: blocks Lassa virus binding to or entry into cells. Lassa virus pseudotype entry inhibition, cell reporter; control for the full effect not named in the record. Potency, µM (top dose mostly 37.9 µM), for inactives: at the highest dose activity change, negative = inhibition, actives largely listed as inhibitors. hit rate 1.2% among 300,000. AID 540256; active means well fitted inhibition curve with a large enough effect; inconclusive means small, poorly fitted or top-dose-only effect, or effect the other way; inactive means flat fitted curve, though single readings scatter; tested in HEK293 cells; also: % is scaled to controls: 0 for no effect and ±100 for the full control effect; nearly all actives have a fitted effect of over 50% in size; luciferase read-out
Numbers without * were called inactive; ? = inconclusive; . = not tested or not shown; & = joins results of further samples; [ ] = dose if it differs, or a comment. Unless noted, calls follow the shape of the dose curve; as a rule, active means well fitted rising curve with a large enough effect; inconclusive means small, poorly fitted or top-dose-only effect; inactive means no such curve, though single readings can be large or run the other way. Potency is read from the fitted curve at half-maximal effect.

No.	compound	StopGo reporter	SARS PLpro yeast	NS1 function inh	RE007 growth inh	Cruzain inh Det	Cruzain noTriton	Marburg entry inh	LASV entry inh
1	CC(=O)c1ccc(-c2ccc(C(=O)NCC(c3ccco3)N(C)C)o2)cc1 (stereo not given)	7%	1%	.	-22%	.	.	10%[46.1 µM]	13%[46.1 µM]
2	COCCNC(=O)C1CCN(C(=O)c2cc3sccc3n2Cc2ccc(Cl)cc2)CC1	?	.	.	.	-2.3%	?	7.9µM*	.
3	Cc1cc(C(=O)N2CCCC(CNS(=O)(=O)c3cccs3)C2)nn1C (stereo not given)	18%	-1%	-3%	4%	.	.	23%[46.1 µM]	?
4	COc1ccc(OC)c2c1cc(C(=O)N[C@H](C(=O)N1CCC[C@H]1C(=O)O)C(C)C)n2C	-20%	-2%	-1%	-14%	.	.	.	.
5	COc1ccccc1OCC(=O)N1CCC2(CC1)CC(=O)c1ccccc1O2	-21%	10%	.	2%	.	.	14%	-10%
6	COc1ccc(CCC(C)NCc2ccccc2OC)cc1 (stereo not given)	-18%	-3%	8%	3%	.	.	.	.
7	O=C(NNC(=O)C1CC=CCC1)c1ccccc1O (stereo not given)	0%	2%	-3%	1%	.	.	1%[46.1 µM]	?
8	CCOc1ccc(CCNC(=O)c2cnc3sc(N4CCCCCC4)nn3c2=O)cc1	?	.	.	.	-3.8%	3%	.	?
9	CCSC(=Nc1ccccc1)Nc1ccccc1	?	-6%	-7%	-11%	.	.	0%[46.1 µM]	0%[46.1 µM]
10	Oc1c(Br)cc(Br)cc1CNc1nccs1	-16%	-2%	-5%	1%	.	.	.	.
11	CCCCn1nnnc1NCc1cc(OC)c(OC)cc1OC	-15%	0%	-2%	-14%	3.5%	3%	-12%	40%[14.3 µM]
12	CCn1ncc(/C=N/NS(=O)(=O)c2ccc(Cl)cc2)c1C	28%	0%	0%	11%	-3.4%	8%	-1%	13%
13	COc1cccc(OCc2nc3ccccc3c(=O)n2N)c1	32%[activator]	-1%	-16%	-13%	-1.8%	0%	-3%	24%[14.3 µM]
14	O=C(COC(=O)c1ccc(Br)o1)NC1CCCCC1	24%	0%	-3%	16%	.	.	11%[46.1 µM]	.
15	COc1cccc(C(=O)Nc2ccc(NC(C)=O)cc2)c1	63%[activator]	3%	6%	3%	-2.6%	0%	?	0%
16	CC(=O)Cc1nsc(NC(=O)c2c(-c3ccccc3Cl)noc2C)n1	-5%	2%	5%	-12%	3.4%	4%	-10%	15%
17	Cc1cc(S(=O)(=O)NC2CC(C)(C)NC(C)(C)C2)c(Cl)cc1Cl	6%	4%	-7%	-2%	.	.	?	-26%
18	CS(=O)(=O)ON=C1CCN(S(=O)(=O)c2ccccc2)CC1	18%	2%	.	1%	.	.	18%[46.1 µM]	-11%[46.1 µM]
19	O=C(c1cc(-c2ccccc2)nc2ccccc12)N1CCC2(CC1)OCCO2	4%	-2%	-15%	-11%	-1.0%	11%	-6%	-5%
20	CCc1ccc(NC(=O)Cn2c(=O)n(CCCCC(=O)NCc3ccccc3Cl)c(=O)c3ccccc32)cc1	0%	.	.	.	-2.7%	-9%	-25%[46.1 µM]	?
21	CCOc1cc(CNn2cnnc2)cc(Cl)c1OCC(=O)NC(C)(C)C	0%	6%	0%	-9%	.	.	-5%[46.1 µM]	-2%[46.1 µM]
22	Cc1ccccc1C(=O)c1ccc2c(c1)n(C)c(=O)n2C	-20%	2%	-80%	17%	-6.4%	3%	?	-12%
23	COc1ccccc1NC(=O)Cn1c(=O)n(Cc2cccs2)c(=O)c2cccnc21	-14%	.	.	.	-3.2%	15%	3%[46.1 µM]	.
24	Cc1ccc(NC(=O)COc2cccnc2[N+](=O)[O-])cc1S(=O)(=O)N1CCCCC1	40µM*	-24%	8%	10%	-4.3%	3%	?	?
25	O=C(CN1C(=O)S/C(=C\c2ccc(F)cc2)C1=O)NC1C=CS(=O)(=O)C1 (stereo not given)	-6%	2%	-3%	-9%	.	.	.	.
26	Cc1ccc(NC(=O)C2CCCN(S(=O)(=O)c3cccc4cccnc34)C2)cc1 (stereo not given)	?	2%	1%	-3%	-3.9%	-4%	-16%&-16%[46.1 µM]	-28%[46.1 µM]
27	CC(C)c1ccc(NC2CCCN(C(=O)CCn3cnnn3)C2)cc1 (stereo not given)	-19%	4%	3%	9%	.	.	8%	3%
28	Cc1nn(-c2ccc(F)cc2)c(Cl)c1/C=C/C(=O)OCC(=O)Nc1ccc(F)cc1F	0%	0%	1%	-10%	-1.4%	-3%	3%	-3%
29	C=CCn1c2ccccc2c2nnc(SCCN3CCCCC3)nc21	-13%	5%	10%	-7%	.	.	.	.
30	CCCCCSc1nnc(-c2ccc(Br)cc2)o1	24%	.	.	.	-2.5%	6%	.	25%[46.1 µM]
31	Cc1ccnc(NC(=O)CN(C)S(=O)(=O)c2cccc3nsnc23)c1	-28%	4%	-13%	-3%	3.6%	-16%	?	?
32	COc1ccc(O)c(C(=O)CC(=O)c2cccnc2)c1	18%	.	.	-21%	.	.	?	-2%[46.1 µM]
33	O=C(NCC(c1cccs1)N1CCOCC1)c1cc(-c2ccccn2)nc2ccccc12 (stereo not given)	?	-1%	5%	7%	.	.	.	.
34	COc1ccc(NC(=O)C2C(c3ccccc3)C2(Cl)Cl)cc1 (stereo not given)	-14%	-1%	-3%	15%	.	.	.	.
35	Cc1nc(CCN2C(=O)c3ccccc3C2=O)n[nH]1	-19%	-1%	8%	-6%	5.5%	4%	-1%	1%
36	COc1ccc([N+](=O)[O-])cc1NC(=S)NC(C)=O	0%	0%	4%	0%	.	.	2%	-3%
37	Cc1ccc(/C=N/n2c(-c3cccnc3)n[nH]c2=S)o1	-17%	0%	-3%	8%	.	.	-17%[46.1 µM]	7%[46.1 µM]
38	Cc1c(Cl)cccc1NS(=O)(=O)c1cn(C)c(=O)n(C)c1=O	-12%	3%	-2%	19%	.	.	.	.
39	COc1ccc(CCNC(=O)COc2ccc3c(C)cc(=O)oc3c2)cc1OC	-8%	-2%	8%	2%	.	.	?	-26%
40	COc1cccc(C(c2nnnn2Cc2ccccc2)N2CCN(C(=O)c3ccco3)CC2)c1OC (stereo not given)	-22%	1%	-18%	8%	1.3%	?	9%&9%	5%
41	CC1CCCCN1C(=S)Nc1ccc2nc3n(c(=O)c2c1)CCCCC3 (stereo not given)	23%	-31%	-6%	-4%	-2.7%	5%	2%	?
42	CN1C(CC(=O)c2ccccc2)CCCC1CC(O)c1ccccc1 (stereo not given)	5%&-14%	2%	-2%	0%	-0.3%&3.1%	10%&-2%	.	.
43	CN1CCN(c2ccc(CNS(=O)(=O)Cc3cccc(C(F)(F)F)c3)cc2)CC1	?	?	0%	-8%	.	.	.	.
44	COc1ccc(C(C)=O)c(OC(=O)c2ccco2)c1	0%	5%	-1%	3%	1.7%	-2%	5%[46.1 µM]	4%
45	C/C(=N\NC(=O)CNc1cccc(Cl)c1C)c1cccs1	-16%	-1%	-3%	30%	.	.	-26%	8%
46	CNC(=O)CN1C(=O)COc2ccc(S(=O)(=O)N3CCCCCC3)cc21	-2%&-10%	-2%	0%	20%	-0.8%	7%	?	-2%&-3%[46.1 µM]
47	COc1ccc(/C=C/C(=O)NCCCc2ccccc2)cc1OC	-23%	5%	-5%	-11%	-4.6%	24%	28%	-1%
48	NC(=O)c1cc(N2CC2)c([N+](=O)[O-])cc1[N+](=O)[O-]	1.3µM*	.	-7%	-5%[18.4 µM]	-4.2%	-1%	?	-15%
49	NC(=O)CC(NC(=O)Cc1ccc(Cl)cc1)c1ccc(NCCCN2CCCC2=O)c([N+](=O)[O-])c1 (stereo not given)	-23%	3%	-1%	3%	.	.	.	.
50	O=C(NCCC(=O)N1CCNC1=O)OCc1ccccc1	6%	5%	3%	4%	1.0%	-2%	1%	3%

Down the list, quoted from above.
Nos. 32 to 43 in NS1 function inh, in turn: ., 5%, -3%, 8%, 4%, -3%, -2%, 8%, -18%, -6%, -2%, 0%
Nos. 32 to 43 in SARS PLpro yeast, in turn: ., -1%, -1%, -1%, 0%, 0%, 3%, -2%, 1%, -31%, 2%, ?

3 entries out of the list, sorted by SMILES length, lowest first:
No.	compound	StopGo reporter	SARS PLpro yeast	NS1 function inh	RE007 growth inh	Cruzain inh Det	Cruzain noTriton	Marburg entry inh	LASV entry inh
39	COc1ccc(CCNC(=O)COc2ccc3c(C)cc(=O)oc3c2)cc1OC	-8%	-2%	8%	2%	.	.	?	-26%
23	COc1ccccc1NC(=O)Cn1c(=O)n(Cc2cccs2)c(=O)c2cccnc21	-14%	.	.	.	-3.2%	15%	3%[46.1 µM]	.
26	Cc1ccc(NC(=O)C2CCCN(S(=O)(=O)c3cccc4cccnc34)C2)cc1 (stereo not given)	?	2%	1%	-3%	-3.9%	-4%	-16%&-16%[46.1 µM]	-28%[46.1 µM]

Continuation.
No.	compound	StopGo reporter	SARS PLpro yeast	NS1 function inh	RE007 growth inh	Cruzain inh Det	Cruzain noTriton	Marburg entry inh	LASV entry inh
51	CCc1cc(C(=O)N2CCCC(C(=O)c3ccc(Oc4ccccc4)cc3)C2)n(C)n1 (stereo not given)	?	-4%	-43%	-13%	.	.	11µM*	-19%[46.1 µM]
52	CCOc1ccc(OCc2ccc(C(=O)Nc3cc(OC)c(OC)c(OC)c3)o2)cc1	-1%	.	.	.	-8.9%	?	?	-26%[46.1 µM]
53	Cn1c(=O)c2c([nH]c(=S)n2CCCc2ccccc2)n(C)c1=O	-9%	2%	26%	13%	.	.	?	5%[46.1 µM]
54	O=S(=O)(NCCc1ccccc1)c1ccc(-n2cnnn2)cc1	21%	1%	-1%	4%	.	.	-1%[46.1 µM]	-5%[46.1 µM]
55	Cc1cc(NC(=O)CSc2ncnc3sc(C)c(C)c23)no1	9%	1%	.	14%	.	.	1%	?
56	O=C(NCCC1=CCCCC1)C1CCC(CNc2nc(=S)[nH]c3ccccc23)CC1 (stereo not given)	-17%	4%	.	-8%	.	.	-6%[46.1 µM]	.

Screens: PubChem, National Center for Advancing Translational Sciences (NCATS)
